# Assay outcomes deposited in PubChem by Broad Institute.
# Ecoli rRNA inh – reduced GFP signal of wild-type E. coli, primary screen, bacterial rRNA inhibitor project, GFP/RFP fluorescence, OD600, single point; E. coli WT GFP vs humanized-ribosome RFP mutants, 24 h; active compounds read low; DMSO median 0, no signal -100; GFP signal change (wild-type ribosome), % (test concentration not listed); 350,000 compounds, 1.6% hits; AID 720706, 2013;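 active = significant combined selectivity score with lowered wild-type GFP, culture density cut under 30%, mutant RFP and density less affected; inactive = any of these conditions unmet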; also: one replicate is shown; some compounds called inactive have numbers as strong as hits
# Ecoli rRNA inh OD600 – recorded beside Ecoli rRNA inh, whose call it bears; OD600 change, %; measured here: OD600 growth;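 optical density of the mix in the first replicate; 0 = DMSO median and -100 = no signal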
# Ecoli rRNA inh RFP – further read-out of Ecoli rRNA inh, marked with its call; RFP signal change, %; measured here: RFP humanized mutant strains;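 first replicate; 0 = DMSO median and -100 = no signal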
# An asterisk follows results filed as active; & = joins results of further samples. An excerpt; the hit share may differ from the screen's.
# The opening five records, ahead of the listing:
SMILES,Ecoli rRNA inh,Ecoli rRNA inh OD600,Ecoli rRNA inh RFP
O=C(C[C@@H]1C[C@@H]2c3cc(NC(=O)NC4CCCCC4)ccc3O[C@@H]2[C@@H](CO)O1)NC1CCCC1,4,18,-1.9
COc1ccc(S(=O)(=O)Nc2ccc3c(c2)[C@@H]2C[C@@H](CC(=O)O)O[C@@H](CO)[C@@H]2O3)cc1,3,-7,0.9
COc1ccc(S(=O)(=O)N(C)C[C@@H]2Oc3ccc(NS(=O)(=O)c4ccc(Cl)cc4)cc3CC(=O)N([C@@H](C)CO)C[C@@H]2C)cc1,1,-1,2.4
O=C1N(Cc2ccccc2)c2ccc(Br)cc2[C@]12C[C@H](O)CO2,-18,-9,0.4
COC(=O)C1=C(C)N(Cc2ccc(F)cc2)C(=S)NC1c1cccc(F)c1 (stereo unspecified),-23,-26,-4.2

# The whole of this part, from the first entry:
SMILES,Ecoli rRNA inh,Ecoli rRNA inh OD600,Ecoli rRNA inh RFP
O=C(C[C@@H]1C[C@@H]2c3cc(NC(=O)NC4CCCCC4)ccc3O[C@@H]2[C@@H](CO)O1)NC1CCCC1,4,18,-1.9
COc1ccc(S(=O)(=O)Nc2ccc3c(c2)[C@@H]2C[C@@H](CC(=O)O)O[C@@H](CO)[C@@H]2O3)cc1,3,-7,0.9
COc1ccc(S(=O)(=O)N(C)C[C@@H]2Oc3ccc(NS(=O)(=O)c4ccc(Cl)cc4)cc3CC(=O)N([C@@H](C)CO)C[C@@H]2C)cc1,1,-1,2.4
O=C1N(Cc2ccccc2)c2ccc(Br)cc2[C@]12C[C@H](O)CO2,-18,-9,0.4
COC(=O)C1=C(C)N(Cc2ccc(F)cc2)C(=S)NC1c1cccc(F)c1 (stereo unspecified),-23,-26,-4.2
Cc1ccc(N2C(=O)N(CC(=O)N3CCc4ccccc43)C(=O)C2C)cc1 (stereo unspecified),-2,13,-0.5
C[C@H]1CN([C@@H](C)CO)C(=O)CCCn2cc(nn2)CO[C@H]1CN(C)C(=O)NC1CCCC1,1,12,0.2
Cc1cc(C(=O)Nc2ccc3c(c2)C(=O)N(C)[C@@H]2CC[C@@H](CC(=O)NCc4ccc(-c5ccccc5)cc4)O[C@H]2CO3)no1,-8,-22,-3.9
Cc1nn(C)cc1NC(=O)C[C@@H]1CC[C@H]2[C@@H](COc3ccc(NC(=O)C4CCOCC4)cc3C(=O)N2C)O1,1,1,-2.5
CN(C)C(=O)C[C@H]1C[C@H]2c3cc(NC(=O)Nc4ccccc4)ccc3O[C@H]2[C@@H](CO)O1,3,6,-3.3
CN1[C@@H]2Cn3c(ccc(C4=CCCCC4)c3=O)[C@H]1[C@@H](C(=O)N1CCCCC1)[C@@H]2CO,-2,-2,-3.8
C[C@@H]1CN([C@H](C)CO)S(=O)(=O)c2ccc(C#CC(C)(C)O)cc2O[C@H]1CN(C)C(=O)C1CC1,0,16,-1.9
C[C@H](CO)N1C[C@H](C)[C@@H](CN(C)C(=O)C2CC2)Oc2cc(-c3ccc(C(=O)N(C)C)cc3)ccc2S1(=O)=O,-2,-8,-0.9
CN1CCN(C(=O)C[C@@H]2C[C@@H]3c4cc(NC(=O)Nc5ccccc5F)ccc4O[C@@H]3[C@H](CO)O2)CC1,4,-1,2.7
C[C@H]1CCCCO[C@@H](CN(C)Cc2ccc(C(F)(F)F)cc2)[C@@H](C)CN([C@@H](C)CO)C(=O)c2cc(NC(=O)Nc3ccc(F)cc3)ccc2O1,1,1,0.1
C[C@H](CO)N1C[C@H](C)[C@H](CN(C)CC2CCCCC2)OCCCC[C@H](C)Oc2ccc(NS(C)(=O)=O)cc2C1=O,4,5,-2.2
Cc1cc2nc(C(C)(C)C)c(Cc3cccc(Cl)c3)n2c(C)c1Br,16,10,9.7
C[C@H](CO)N1C[C@H](C)[C@@H](CN(C)C(=O)Nc2cccc3ccccc23)Oc2ccc(NC(=O)Nc3ccc(F)cc3)cc2C1=O,-2,-8,0.1
CN1C[C@@H](CO)O[C@@H](n2cnc3c(N4CCN(CCO)CC4)ncnc32)C1,11,20,2.1
CN1CCN(C(=O)c2cc3c(c(-c4cccc(-c5cccnc5)c4)n2)[C@H](CCO)N(C(=O)CC2CC2)C3)CC1,0&26,-4&10,-1.8&11
C[C@@H]1CCCCO[C@H](CN(C)CC2CC2)[C@H](C)CN([C@H](C)CO)C(=O)c2cc(NC(=O)c3ccccc3)ccc2O1,1,3,-0.4
C[C@H](CO)N1C[C@H](C)[C@@H](CN(C)S(=O)(=O)c2cccs2)Oc2ccc(NS(=O)(=O)c3ccc(Cl)cc3)cc2C1=O,-5,-15,3.8
CCCNC(=O)C[C@@H]1CC[C@@H]2[C@H](COc3ccc(NC(=O)Cc4ccccc4)cc3C(=O)N2C)O1,2,4,0.3
CCCCn1c(O)c2n(c1=O)Cc1ccccc1N=C2c1ccc(OC)cc1,2,16,-3.5
N#C[C@H]1[C@@H](c2ccc(-c3ccccc3F)cc2)[C@@H](CO)N1C(=O)c1ccccn1,-1,-23,-1.5
C[C@@H]1CN([C@@H](C)CO)C(=O)c2cc(NC(=O)CCCN(C)C)ccc2O[C@@H]1CN(C)Cc1ccc(-c2ccccc2)cc1,5,4,5.1
C[C@H](CO)N1C[C@H](C)[C@@H](CN(C)C(=O)Nc2ccccc2)Oc2ccc(NC(=O)Cc3cn(C)c4ccccc34)cc2C1=O,-4,-2,2.4
Cc1ccc(S(=O)(=O)N[C@H]2CC[C@H](CCn3cc(-c4cccc(F)c4)nn3)O[C@@H]2CO)cc1,-6,-22,-0.3
C[C@H](CO)N1C[C@H](C)[C@H](CN(C)Cc2ccc(Cl)c(Cl)c2)Oc2ccc(NC(=O)Nc3ccccc3)cc2CC1=O,4,6,0.5
COc1cccc(NC(=O)N2C[C@@H](O)COC[C@@H]3O[C@H](CC(=O)N(C)C)CC[C@H]32)c1,4,-1,0.8
Cc1cccc(C)c1OCC(=O)Nc1cccc(S(=O)(=O)N2CCCCCC2)c1,-7,-5,4.7
C[C@H]1CN([C@@H](C)CO)C(=O)Cc2cc(N(C)C)ccc2O[C@H]1CN(C)S(=O)(=O)c1cccs1,0,-8,-0.2
O=C(C1CC1)N1CC[C@@H]2[C@H]1c1cc(-c3cccc(F)c3)ccc1N[C@@H]2CO,-26,-50,9.3
C[C@@H]1CN([C@H](C)CO)C(=O)c2c(c3ccccc3n2C)-c2ccccc2CO[C@@H]1CN(C)C(=O)[C@H](C)c1ccccc1,2,-2,0.2
CC(C)C[C@@H]1COCc2cn(nn2)CC[C@H](Cc2ccccc2)C(=O)N1,4,11,-1.0
COCCN1C[C@@H](CO)O[C@@H](n2cnc3c(NCC(C)C)ncnc32)C1,5,13,-1.7
C[C@H]1CN([C@@H](C)CO)C(=O)c2c(c3ccccc3n2C)-c2ccccc2CO[C@@H]1CN(C)Cc1ccccc1,-42*,-22*,3.2*
C[C@H](CO)N1C[C@H](C)[C@H](CN(C)CC2CCCCC2)OCCCC[C@H](C)Oc2ccc(NC(=O)c3ccccc3)cc2C1=O,-6,-25,14
C[C@H]1CN([C@@H](C)CO)C(=O)CCCn2cc(nn2)CO[C@@H]1CN(C)C(=O)Cc1ccccc1,10&3,20&2,-2.1&0.1
COc1ccc2c3c([nH]c2c1)[C@H](CO)N(C(=O)c1ccc(F)cc1)CC31CN(S(=O)(=O)c2cccs2)C1,-3,-21,-0.7
CO[C@@H]1CC[C@H]2CCN(C)C(=O)[C@@H](C)[C@H](OC)CN(C)C(=O)c3cc(C#N)ccc3OC[C@@H]1O2,2,4,-1.1
Cc1ccc(S(=O)(=O)Nc2ccc3c(c2)C(=O)N([C@@H](C)CO)C[C@@H](C)[C@H](CN(C)Cc2ccc(C(F)(F)F)cc2)OCCCC[C@@H](C)O3)cc1,-1,-7,-0.7
C[C@H](CO)N1C[C@H](C)[C@@H](CN(C)S(=O)(=O)c2cn(C)cn2)OCc2ccccc2-c2c(n(C)c3ccccc23)C1=O,-10,-65,14
C[C@H]1CN([C@@H](C)CO)C(=O)Cc2cc(NS(=O)(=O)c3ccc(Cl)cc3)ccc2O[C@H]1CN(C)C(=O)NC1CCCCC1,0,-5,0.2
CC(=O)N(C)C[C@H]1Oc2cc(-c3cccc(C#N)c3)ccc2S(=O)(=O)N([C@H](C)CO)C[C@H]1C,-2,-2,-2.4
Cc1cccc(-c2ccc([C@H]3[C@H]4CN(CCC(F)(F)F)CCCCN4[C@H]3CO)cc2)c1,-59,-76,-10
O=C(NCC(F)(F)F)[C@H]1[C@H](CO)[C@H]2Cn3c(cccc3=O)[C@@H]1N2CC1CCOCC1,4,2,-3.6
CC(C)C#Cc1cnc2c(c1)C(=O)N([C@H](C)CO)C[C@@H](C)[C@@H](CN(C)C(=O)c1cccnc1)O2,7,14,-4.8
C[C@@H]1CCCCO[C@H](CN(C)C(=O)NC2CCCCC2)[C@H](C)CN([C@H](C)CO)C(=O)c2cc(N(C)C)ccc2O1,0,0,-1.2
C[C@H]1CN([C@@H](C)CO)S(=O)(=O)c2ccc(C#CC3CCCCC3)cc2O[C@H]1CN(C)Cc1cccnc1,-3,-1,12
C[C@@H]1CCCCO[C@@H](CN(C)C(=O)CCCN(C)C)[C@@H](C)CN([C@H](C)CO)C(=O)c2cc(NC(=O)C3CCCCC3)ccc2O1,4,3,-1.2
COc1ccc(S(=O)(=O)Nc2ccc3c(c2)CC(=O)N([C@@H](C)CO)C[C@@H](C)[C@@H](CN(C)C(=O)NC2CCCCC2)O3)cc1,1,3,1.7
CN1c2ccc(-c3ccc(F)cc3)cc2[C@H]2[C@H](CCN2C(=O)Cc2ccccn2)[C@H]1CO,0,-1,5.3
CC(C)C#Cc1ccc2c(c1)O[C@@H](CN(C)C(=O)c1cccc(F)c1)[C@H](C)CN([C@H](C)CO)S2(=O)=O,-2,-23,9.6
O=C1C(=C2CCc3ccccc32)Cc2ccccc21,1,-50,-1.7
CNC[C@@H]1Oc2c(N)cccc2C(=O)N([C@H](C)CO)C[C@@H]1C,5,10,1.4
CC(C)CC#Cc1cnc2c(c1)C(=O)N([C@@H](C)CO)C[C@H](C)[C@@H](CN(C)C(=O)c1cccc(F)c1)O2,-1,-6,3.9
C[C@@H]1CN([C@H](C)CO)S(=O)(=O)c2ccc(C3=CCCC3)cc2O[C@@H]1CN(C)C(=O)Nc1ccc2c(c1)OCO2,-2,-12,2.1
C[C@@H]1CCCCO[C@@H](CN(C)C(=O)Nc2ccc3c(c2)OCO3)[C@@H](C)CN([C@H](C)CO)C(=O)c2cc(NC(=O)CCCCCC(=O)Nc3ccccc3N)ccc2O1,3,-2,-0.3
COC1=CC(=O)OC(c2ccc(C#N)cc2)C1 (stereo unspecified),5,9,-6.0

# Later entries
SMILES,Ecoli rRNA inh,Ecoli rRNA inh OD600,Ecoli rRNA inh RFP
C[C@H]1CN([C@@H](C)CO)C(=O)c2cc(-c3cccnc3)cnc2O[C@H]1CN(C)C(=O)Nc1ccc(C(F)(F)F)cc1,1,3,-0.8
CCCNC(=O)C[C@@H]1C[C@@H]2c3cc(NC(=O)NC4CCCCC4)ccc3O[C@@H]2[C@@H](CO)O1,-1,5,-4.5
C[C@@H]1CN([C@@H](C)CO)C(=O)c2cc(NS(C)(=O)=O)ccc2O[C@@H](C)CCCCO[C@@H]1CN(C)C(=O)CCC(F)(F)F,-1,0,-1.5
O=C(C[C@H]1CC[C@@H](NC(=O)Nc2ccccc2)[C@H](CO)O1)NCc1ccccn1,4,1,-1.2
COc1ccc2c3c([nH]c2c1)[C@@H](CO)N(C(=O)Nc1ccc(F)cc1)CC31CN(CC2CCOCC2)C1,0,-9,-5.9
O=C(NCc1ccccc1)c1ccc(-c2cn[nH]c2)c2ccoc12,-20*,-6.8*,1.0*
Cn1cnc(S(=O)(=O)N2CCCCN3[C@@H](CO)[C@@H](c4ccc(C#CC5CCCC5)cc4)[C@@H]3C2)c1,-1,-44,23
C[C@@H]1CCCCO[C@H](CN(C)C(=O)c2ccncc2)[C@@H](C)CN([C@H](C)CO)C(=O)c2cc(NC(=O)Cc3ccccc3)ccc2O1,3,5,-2.1
Cc1ccc(-c2cnc3c(c2)C(=O)N([C@H](C)CO)C[C@H](C)[C@H](CN(C)C(=O)c2cccnc2)O3)cc1,2,-7,-0.8
C[C@@H]1CCCCO[C@H](CN(C)C(=O)C2CCCCC2)[C@H](C)CN([C@@H](C)CO)C(=O)c2cc(NC(=O)Cc3ccccc3)ccc2O1,-3,-12,2.4
Cc1ccc(S(=O)(=O)Nc2ccc3c(c2)CC(=O)N([C@@H](C)CO)C[C@@H](C)[C@@H](CN(C)Cc2ccc(Cl)c(Cl)c2)O3)cc1,3,8,2.8
CNC[C@@H]1Oc2ncc(C#CC3CCCC3)cc2C(=O)N([C@@H](C)CO)C[C@@H]1C,5,15,1.4

# Ordered by SMILES length (ascending): three of the compounds above
SMILES,Ecoli rRNA inh,Ecoli rRNA inh OD600,Ecoli rRNA inh RFP
O=C(C[C@H]1CC[C@@H](NC(=O)Nc2ccccc2)[C@H](CO)O1)NCc1ccccn1,4,1,-1.2
CN1c2ccc(-c3ccc(F)cc3)cc2[C@H]2[C@H](CCN2C(=O)Cc2ccccn2)[C@H]1CO,0,-1,5.3
COc1ccc2c3c([nH]c2c1)[C@H](CO)N(C(=O)c1ccc(F)cc1)CC31CN(S(=O)(=O)c2cccs2)C1,-3,-21,-0.7

# (cont.)
SMILES,Ecoli rRNA inh,Ecoli rRNA inh OD600,Ecoli rRNA inh RFP
C[C@H]1CN([C@@H](C)CO)C(=O)Cc2cc(NC(=O)Nc3ccccc3)ccc2O[C@@H]1CN(C)S(=O)(=O)c1ccc(F)cc1,-3,-5,0.6
CC1(C(=O)Nc2cccnc2)Cc2c(-c3ccc4c(c3)OCO4)ccnc2O1 (stereo unspecified),-11,-22,0.5
CC(=O)N(C)C[C@@H]1Oc2ncc(-c3ccc(F)cc3)cc2C(=O)N([C@H](C)CO)C[C@@H]1C,1,10,-0.9
CNC[C@H]1Oc2ccc(NC(=O)C3CC3)cc2CC(=O)N([C@@H](C)CO)C[C@H]1C,5,1,1.0
